Screening data as filed in PubChem BioAssay.
Biofilm kill mix: mixture kills Candida albicans biofilm cells; AID 1242; C. albicans biofilm persisters + clotrimazole, fluorescence viability; primary screen in compound mixtures of four per well; inhibition, % at 7.6 µM; 120,000 compounds, 0.02% hits;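 active = inhibition above 30.3% in the primary screen of four-compound pools, then above 30% when the compound was retested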;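 note: compounds exposed to preformed 24 h biofilms for 48 h; the number belongs to the whole pool; some results filed as inactive read as strong as hits; inactives centre near 12; 0% = biofilm with clotrimazole alone and 100% = kill control; retested singly at about 60 µM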
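Test system: C. albicans biofilms. Buffer or medium: RPMI/MOPS medium, pH 7.0. Timing: 48 h compound exposure at 37 °C. Technique: Alamar Blue fluorescence. Evaluation: percent inhibition of biofilm viability.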
The depositor's hits bear a star.

#	structure	Biofilm kill mix
1	Cc1nn(CCc2nn[nH]n2)c2nc(-c3ccc(C4CCCCC4)cc3)cc(C(F)(F)F)c12	10.6
2	Cc1onc(-c2ccccc2Cl)c1C(=O)OCC(=O)Nc1cccc(S(=O)(=O)N2CCOCC2)c1	8.7
3	Cc1ccc(C2=NN=C(NC(=O)C(F)(F)F)SC2)cc1	17.6
4	CCC1CN(C(=O)Nc2cccc(C)c2)c2cc(C)ccc2O1 (centres undefined)	10.7
5	CCOc1cnc(-c2c(-c3c(F)cccc3Cl)noc2C)o1	-10.4
6	CCCC(CCC(=O)Nc1nccs1)C(=O)O (centres undefined)	6.8
7	O=C(O)c1cccc(S(=O)(=O)Nc2ccc3c(c2)OCO3)c1	9.0
8	O=S1(=O)CC=C(CSC(=S)NC2CCS(=O)(=O)C2)C1 (centres undefined)	14.8
9	O=C(Cc1ccccc1[N+](=O)[O-])NC1CC1	14.3
10	COc1cc(/C=C(\NC(C)=O)C(=O)NC(C)(C)C)ccc1OC(C)=O	11.2
11	COc1ccc(N(C)C(=O)Cc2c(C(=O)O)[nH]c3ccccc23)c(OC)c1	17.3
12	CCC(=O)Nc1nc2ccccc2n1Cc1ccccc1Cl	10.5
13	COc1ccc(/C=N/Nc2nc(-c3cccnc3)nc3ccccc23)cc1OC	10.9
14	Cc1ccc(NC(=O)NCC2CCN(Cc3cc(C)ccc3Cl)CC2)c(C)c1	10.5
15	Nc1nonc1-n1nnc(C(=O)N/N=C/c2c(Cl)cccc2Cl)c1CSC1=NCCS1	15.7
16	Cc1ccnc(NC(=O)Nc2ccc(Br)cc2Cl)c1	13.2
17	O=c1c2ccccc2nc(SCc2ccc([N+](=O)[O-])cc2)n1-c1ccc(Cl)cc1	13.3
18	COc1ccc(N=c2cc(-c3ccc(OC)cc3)oc3ccccc23)cc1	8.8
19	O=C(O)CN1CCN(Cc2ccccc2F)C1=O	17.3
20	O=C(NCCc1ccccc1)c1c(F)c(F)c(F)c(F)c1F	12.7
21	COc1ccc(OC)c(Nc2nc(NCCCN(C)C)nc(N)c2[N+](=O)[O-])c1	11.0
22	COc1ccc(C(=O)/C=C/Nc2ccc(S(=O)(=O)Nc3cccc(C(C)=O)c3)cc2)cc1	-7.0
23	O=C(CNCC1CCCO1)Nc1ccc([N+](=O)[O-])cc1C(=O)Nc1ccccc1F (centres undefined)	13.2
24	CC(C)=CC(=O)Nc1c(C)cc(C)cc1Cl	7.4
25	COCc1ccc(C(=O)N2CCCC(C(=O)c3cc(F)ccc3F)C2)s1 (centres undefined)	8.0

New compounds follow:
#	structure	Biofilm kill mix
26	Cc1ccccc1-c1cc(=O)c2c(O)cccc2o1	10.6
27	Cc1ccc(S(=O)(=O)NCC(=O)N/N=C/c2ccccc2O)cc1	22.6
28	O=c1cc(-c2ccccc2Cl)oc2c(NS(=O)(=O)c3cc(Cl)cc(Cl)c3O)ccc(O)c12	17.6
29	CCN(c1ccccc1)S(=O)(=O)c1cc([N+](=O)[O-])ccc1N	3.0
30	CCN1/C(=C/c2sc(-c3ccccc3C)c[n+]2C)Sc2ccccc21	24.1
31	Cc1ccccc1NC(=O)N1CCN(C/C=C/c2ccccc2)CC1	6.5
32	Cc1cc(=O)oc2cc(OCC(=O)OCC(=O)NC3CC3)ccc12	5.7
33	C=CCN(CC=C)C(=S)NCCc1ccc(OC)c(OC)c1	3.7
34	Cc1cccc(C(=O)Oc2ccc(/C=N/O)cc2)c1	9.2
35	COc1ccc(-c2nn(-c3ccccc3)cc2/C=N/Nc2ccc3ccccc3n2)cc1OC	19.2
36	COC(=O)CCC(=O)Nc1cc(Cl)cc(Cl)c1	4.9
37	CCn1nnc(NC(=O)COc2ccc([N+](=O)[O-])cc2)n1	1.5
38	COc1ccc(NS(=O)(=O)c2ccc(OC)c(NC(=O)CCC3CCCC3)c2)cc1	7.9
39	COc1ccccc1N1CCN(C(C)C(=O)Nc2ccc(S(=O)(=O)N3CCOCC3)cc2)CC1 (centres undefined)	8.5
40	CCN(CC)C(=O)Cn1cc(S(=O)(=O)CC(=O)N2CCCCCC2)c2ccccc21	12.7
41	N#C/C(=C\c1ccccc1[N+](=O)[O-])C(=O)Nc1ccc(S(N)(=O)=O)cc1	22.6
42	O=C(CSc1nnc(-c2cccnc2)n1CCc1ccccc1)NCc1ccccc1	13.3
43	O=[N+]([O-])c1ccc(-c2nc(=S)c3c(o2)CCCC3)cc1	8.6
44	CCc1cc2c(=O)c(-c3cnn(-c4ccccc4)c3)c(C(F)(F)F)oc2c(CN(C)C)c1O	19.3
45	COc1ccc(C(=O)N/N=C/c2c(CO)cnc(C)c2O)cc1	8.3
46	CCN=c1scc(C)n1/N=C/c1cc(Br)c(O)c(OC)c1	14.5
47	CCc1nc2sc3c(c2c(=O)n1N)CC(C)(C)OC3	0.1
48	O=S1(=O)CCN(Cc2csc(-c3cccs3)n2)CC1	20.2
49	CN(C(=O)COC(=O)C1CCN(S(=O)(=O)c2cccs2)CC1)c1ccccc1	6.7
50	O=C1CC(c2cccc(F)c2)c2c(c3ccccc3[nH]c2=O)O1 (centres undefined)	8.0

More results.
#	structure	Biofilm kill mix
51	CN(Cc1cnn(C)c1)Cc1nc(C(c2ccccc2)c2ccccc2)no1	9.5
52	OC(CNCc1ccccc1Cl)C(F)(F)F (centres undefined)	6.0
53	FC(F)(F)c1cnc(NNC(=S)Nc2ccc(Cl)cc2)c(Cl)c1	6.5
54	COc1cccc(-c2cc(C(=O)N3N=C(C)CC3(O)C(F)F)c3ccccc3n2)c1 (centres undefined)	13.9
55	O=C(c1ccc2c(c1)OCO2)C1CCCN(Cc2ccc3cccc(F)c3n2)C1 (centres undefined)	21.0
56	CCOC(=O)C1CCCCN1Cc1cn[nH]c1-c1ccc(F)cc1F (centres undefined)	13.6
57	O[C@@H]1COC(Nc2ccc(N=Nc3ccccc3)cc2)C[C@@H]1O (some centres undefined)	10.9
58	Cc1ccc2c(c1C)NC(=O)C21N2CCCC2C(C(=O)c2ccc3ccccc3c2)C12C(=O)Nc1ccccc12 (centres undefined)	21.5
59	O=[N+]([O-])c1cc(C(F)(F)F)cc([N+](=O)[O-])c1Sc1n[nH]c(C(F)(F)F)n1	18.6
60	CCOC(=O)c1cnc(-n2nc(C)cc2C)nc1NNc1ncc(-c2ccccc2)cn1	9.5
61	Cc1cc(=O)[nH]c(SCC(=O)NC2CCCc3ccccc32)n1 (centres undefined)	9.9
62	Cc1ccc(NC(=O)C(=O)NCc2ccccn2)cc1	1.6
63	O=C(COC(=O)c1cc(Cl)ccc1Cl)NCCN1C(=O)CSC1=O	5.8
64	COc1ccc(C(=O)/C=C/C(=O)N(Cc2ccc3c(c2)OCO3)C(C(=O)NC2CCCCC2)c2ccncc2)c(O)c1 (centres undefined)	12.5
65	CC(C)(C)OC(=O)NCCCC[C@H](NC(=O)c1nc[nH]c1C(=O)N[C@@H](CCCCNC(=O)OC(C)(C)C)C(=O)OC(C)(C)C)C(=O)OC(C)(C)C	9.5
66	N#CC1=C(N)Oc2c(oc(CO)cc2=O)C1c1ccccc1[N+](=O)[O-] (centres undefined)	11.4
67	CCN(CC(=O)NC(C)(C)C)C(=O)c1ccc2c(c1)S(=O)(=O)c1ccccc1C2=O	13.4
68	COCc1cc(C)nc(SC)c1C#N	24.4
69	CC(C)[C@@H](CO)NC(=O)c1ccc2c3n(nc2c1)-c1ccccc1CO3	-2.3
70	COc1cc([C@H](Cc2ccccc2)NC(C)=O)oc(=O)c1	18.6
71	Cc1[nH]c2ccccc2c1/C=N/Nc1ccccc1[N+](=O)[O-]	-0.2
72	C=C(C)Cn1c(CCCNC(=O)CC)nc2ccccc21	6.6
73	Cc1cc(C)nc(NS(=O)(=O)c2ccc(NC(=O)CN3C(=O)S/C(=C\c4ccccc4)C3=O)cc2)n1	15.6
74	COc1cccc(OC)c1C(=O)Nc1ccc(Cc2ccncc2)cc1	13.7
75	CCC(Sc1nc2ccccc2c(=O)[nH]1)C(=O)Nc1ccc(C(C)=O)cc1 (centres undefined)	-9.2

More records.
#	structure	Biofilm kill mix
76	CC(=O)Nc1ccc(NS(=O)(=O)c2ccc(-c3csc(C)n3)s2)cc1	9.9
77	COc1ccc(/C=C/C(=O)Nc2ccc3nc4n(c(=O)c3c2)CCCC4)cc1OC	4.2
78	CCC(CC)C(=O)Nc1ccc(C(=O)c2ccccc2)cc1	3.8
79	O=C(CN1C(=O)C2CC=CCC2C1=O)NCc1cccs1 (centres undefined)	13.5
80	O=C(NNc1nc2ccccc2o1)c1ccccc1	25.0
81	COc1cc(/C=C/C(=O)O)cc(OC)c1OC	-1.5
82	COc1ccc(-c2nn(-c3ccccc3)cc2CNC(C)Cn2cncn2)c(F)c1 (centres undefined)	13.0
83	CCCNC(=O)c1ccccc1NC(=O)c1ccccc1N(C)S(=O)(=O)c1ccc(C)cc1	9.9
84	COCC(C)NC(=O)/C=C/c1ccc(OC)cc1 (centres undefined)	7.6
85	CS/C(=C/[N+](=O)[O-])Nc1cccc2c1C(C)CC2(C)C (centres undefined)	14.1
86	CC(C)NCc1cc(Br)ccc1OCc1ccccc1	8.5
87	Cc1cccc(NC(=O)c2nc[nH]c2C(=O)NCC(=O)OCc2ccccc2)c1	4.8
88	COc1ccc(OCCSc2nc(N)cc(=O)[nH]2)cc1	23.7
89	COc1ccc2c(=O)cc(C(=O)O)oc2c1	5.9
90	CCOc1ccc(S(=O)(=O)NNC(=S)Nc2ccc(Br)cc2)cc1	5.9
91	Cc1ccc(S(=O)(=O)/N=C(/c2ccc(F)cc2)N2CCCCC2)cc1	12.2
92	CCNc1nc(NCC)nc(N(CC)C(N)=S)n1	17.5
93	Cc1ccc(NNC(=S)Nc2ccc(C(C)C)cc2)c(C)c1	13.3
94	CC(NC(=O)CCCOc1ccc(Cl)cc1)c1ccccc1 (centres undefined)	14.7
95	COc1ccccc1NC(=O)/C=C/C(=O)O	10.9
96	Cc1ccc(NC(=O)/C=C/c2ccc([N+](=O)[O-])s2)cc1	13.0
97	ClCc1nnc(-c2cc3c(s2)CCCC3)o1	24.0
98	Cc1nnc(SCC(=O)N(Cc2ccccc2)C(C)(C)C)[nH]c1=O	14.3
99	COc1ccccc1/C=C/C(=O)c1ccccc1	8.1
100	Cc1cc(C)n(-c2nc(C(=O)O)cs2)n1	12.2

Other structures follow.
#	structure	Biofilm kill mix
101	C=CCOC(=O)C1C(=O)CC(C)(O)C(C(=O)OCC=C)C1c1ccc(N(C)C)cc1 (centres undefined)	8.2
102	COc1ccc2c3c(c(=O)oc2c1OCC(=O)O)CCCC3	6.0
103	Cc1ccc(C(=O)NC(=S)Nc2ccc(NC(=O)c3cccc(Cl)c3)cc2)cc1	8.6
104	COc1cc(/C=C2/SC(=Nc3ccc(O)cc3)NC2=O)ccc1O	14.3
105	CCOc1cc(/C=N/NC(=O)c2ccc(CN3CCOCC3)cc2)ccc1OC	-0.7
106	Cn1c(=O)c2ncn(CC(=O)N/N=C/C=C/c3ccccc3)c2n(C)c1=O	12.2
107	COC(=O)c1ccc(N2C(=O)C3CC=CC(C)C3C2=O)cc1 (centres undefined)	5.8
108	Cc1ccc(N=CC2=C(O)CC(c3cccc(Cl)c3)CC2=O)cc1 (centres undefined)	18.2
109	COc1ccc(C(=O)NC(=S)NNC(=O)c2c(-c3ccccc3)noc2C)cc1OC	16.4
110	O=C(c1nc2ccccn2c1CN1CCC(Cc2ccccc2)CC1)N1CCCC1	-8.0
111	COc1ccc2cc(C(=O)NCc3ccccc3)c(=Nc3ccc(C(=O)O)cc3)oc2c1	8.7
112	C/C(=N\NC(=O)CSCc1ccccc1Cl)c1cc(O)ccc1O	8.1
113	CC1(C)CC(=O)C/C(=N\NC(=O)Cc2ccccc2)C1	11.3
114	CCCCOc1c(C(=O)Nc2ccccc2)nnn1-c1ccccc1	-3.0
115	COc1ccccc1OCC(O)CO (centres undefined)	4.0
116	CCOc1cc(/C=N/NC(=O)CN(CCc2ccccc2)S(=O)(=O)c2ccc(NC(C)=O)cc2)ccc1O	19.5
117	O=C(c1cc2cc([N+](=O)[O-])ccc2oc1=O)n1cccn1	13.7
118	COc1cc(NC(=O)COc2c(C)cc(C)cc2[N+](=O)[O-])c(OC)cc1Cl	15.9
119	COC(=O)C(Cc1ccc(O)cc1)NC(=O)C(CC(=O)OC(C)(C)C)NC(=O)OC(C)(C)C (centres undefined)	14.2
120	O=C(C[n+]1cc(-c2ccc(Cl)cc2)n2c1CCC2)N1c2ccccc2Sc2ccccc21	21.8
121	CC(NC(=O)COC(=O)Cc1ccsc1)c1ccccc1 (centres undefined)	12.5
122	Cc1nc2cc(-c3cccc(F)c3)nn2c(C)c1CCC(=O)N1CCN(c2ccccn2)CC1	21.3
123	COC(=O)/C=C/c1ccc2c(c1)OCO2	16.3
124	Cc1ccc(S(=O)(=O)N(CC(=O)NCc2ccco2)C2CCCCC2)cc1	9.5
125	COc1cc(-c2cc(=O)c3c(O)c(OC)c(OC)c(O)c3o2)ccc1O	18.6

Some of these compounds in order of heavy-atom count, smallest number first.
#	structure	Biofilm kill mix
117	O=C(c1cc2cc([N+](=O)[O-])ccc2oc1=O)n1cccn1	13.7
125	COc1cc(-c2cc(=O)c3c(O)c(OC)c(OC)c(O)c3o2)ccc1O	18.6
109	COc1ccc(C(=O)NC(=S)NNC(=O)c2c(-c3ccccc3)noc2C)cc1OC	16.4

New compounds follow
#	structure	Biofilm kill mix
126	O=C(COC(=O)c1cccc(S(=O)(=O)N2CCCCC2)c1)NC1CCCc2ccccc21 (centres undefined)	8.1
127	O=C(CCN1CCN(C/C=C/c2ccccc2)CC1)Nc1cccc(F)c1	18.6
128	CC(C)OP(=O)(OC(C)C)C(Nc1ccccc1)c1cccc2c1OCO2 (centres undefined)	8.5
129	Cc1cc(Br)ccc1OCCn1ccnc1	8.9
130	Cc1ccc(O)c(C(=O)c2cnn(-c3ccc(S(=O)(=O)N4CCOCC4)cc3[N+](=O)[O-])c2)c1	1.5

Quoted at random: 3 records from the list, in no set order.
#	structure	Biofilm kill mix
54	COc1cccc(-c2cc(C(=O)N3N=C(C)CC3(O)C(F)F)c3ccccc3n2)c1 (centres undefined)	13.9
57	O[C@@H]1COC(Nc2ccc(N=Nc3ccccc3)cc2)C[C@@H]1O (some centres undefined)	10.9
48	O=S1(=O)CCN(Cc2csc(-c3cccs3)n2)CC1	20.2

This is a subset; the hit share may differ from the screen's.
